Screening results: PubChem, National Center for Advancing Translational Sciences (NCATS)
MARV entry inh = Marburg virus entry inhibition; Marburg virus pseudotyped entry inhibition, cell reporter; control for the full effect not named in the record; about a third of the inactives were read at about 46 µM; 300,000 compounds, 1.8% hits; Potency, µM (series often up to 37.8 µM), for the others: at the highest dose activity change, negative = inhibition, hits mostly inhibitors; AID 540276; active = well fitted inhibition curve with a large enough effect; inconclusive = small, poorly fitted or top-dose-only effect, or effect the other way; inactive = flat fitted curve, though single readings scatter; tested in HEK293 cells; about a fifth of its hits are not listed in these tables; further: on the % scale 0 is the no-effect control and ±100 the full control effect; luciferase read-out
RE007 growth inh = less growth of the S. pombe RE007 Vpr strain; 360,000 compounds, 0.21% hits; Potency, µM (doses to about 92.2 µM), inactives show at the top dose activity change, negative = less growth; S. pombe RE007 Vpr strain, BacTiter-Glo ATP luminescence, 24 h; control for the full effect not named in the record; AID 651644; active = well fitted falling curve with a large enough effect; inconclusive = small, poorly fitted or top-dose-only effect; inactive = no such curve, though single readings can be large or run the other way;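 further: on the % scale 0 is the no-effect control and ±100 the full control effect; nearly all actives have a fitted effect of over 50% in size; the assay follows cell death caused by Vpr and the record does not say whether a fall means rescue or toxicity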
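Fission yeast strain RE007, carrying one chromosomally integrated HIV-1 vpr copy, was seeded at OD 0.01 in PMG+AL medium with 23 nL pinned compound. After 24 h at 30 °C and 99% humidity, viability was read by BacTiter-Glo luminescence.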
NS1 inh = blocks influenza NS1 protein function; 270,000 compounds, 0.4% hits; S. cerevisiae slowed by influenza A NS1, growth recovery by OD600; Potency, µM (doses to about 46.1 µM), without a hit: top-dose activity, positive = more growth; active means well fitted rising curve with a large enough effect; inconclusive means small, poorly fitted or top-dose-only effect; inactive means no such curve, though single readings can be large or run the other way; further: nearly all actives have a fitted effect of over 50% in size
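OD600 was taken as the measure of yeast growth restored by compound in an NS1-expressing S. cerevisiae strain. Cells had been washed out of glucose medium and diluted 1:100 into galactose -URA medium, pH 6.0.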
LASV entry inh = blocks Lassa virus binding to or entry into cells; Lassa virus pseudotype entry inhibition, cell reporter; control for the full effect not named in the record; Potency, µM (highest dose often 37.9 µM), for the others: at the top dose activity change, negative = inhibition, hits mostly inhibitors; 300,000 compounds, 1.2% hits; active means well fitted inhibition curve with a large enough effect; inconclusive means small, poorly fitted or top-dose-only effect, or effect the other way; inactive means flat fitted curve, though single readings scatter; tested in HEK293 cells; further: on the % scale 0 is the no-effect control and ±100 the full control effect; nearly all actives have a fitted effect of over 50% in size; luciferase read-out
Cruzain noTriton = inhibitors of Trypanosoma cruzi cruzain without detergent. P25779. AID 1476. 200,000 compounds, 2.3% hits. purified cruzain, Z-FR-AMC fluorescence, no detergent. Potency, µM, inactives show max response, negative = inhibition, most hits filed as inhibitors;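 further: plate controls were enzyme without inhibitor for no effect and buffer without enzyme for full effect; nearly all actives have a fitted effect of over 40% in size; top concentration of the series not given in the record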
Target sequence (P25779 123-467 limits assumed): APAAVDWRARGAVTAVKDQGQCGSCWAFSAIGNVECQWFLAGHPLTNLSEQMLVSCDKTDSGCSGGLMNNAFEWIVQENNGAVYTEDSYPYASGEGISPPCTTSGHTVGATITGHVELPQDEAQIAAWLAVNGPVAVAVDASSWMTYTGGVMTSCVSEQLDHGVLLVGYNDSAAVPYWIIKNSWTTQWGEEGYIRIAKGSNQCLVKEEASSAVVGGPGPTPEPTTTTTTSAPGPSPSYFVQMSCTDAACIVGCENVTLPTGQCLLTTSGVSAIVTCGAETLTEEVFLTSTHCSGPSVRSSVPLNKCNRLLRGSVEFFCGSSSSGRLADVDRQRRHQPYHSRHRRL
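Purified cruzain at 1.5 nM, pre-incubated 15 min with compound at room temperature in 100 mM sodium acetate pH 5.5, 5 mM DTT, 0.00005% Triton X-100. Reaction started with 2 uM Z-FR-AMC; AMC fluorescence increase over 60 s gives rate.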
Cruzain Triton = inhibitors of Trypanosoma cruzi cruzain with detergent. P25779. purified cruzain, Z-FR-AMC fluorescence, 0.01% Triton. Potency, µM, without a hit: max response, negative = inhibition, usual class: inhibitors. 200,000 compounds, 0.43% hits. AID 1478;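 further: plate controls were neutral wells for no effect and buffer without enzyme for full effect; nearly all actives have a fitted effect of over 40% in size; top concentration of the series not given in the record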
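Sodium acetate buffer (100 mM, pH 5.5) containing 5 mM DTT and 0.01% Triton X-100 hosted 1.5 nM cruzain and test compound for 15 min at room temperature. Cleavage of 2 uM Z-FR-AMC was then tracked by fluorescence.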
SARS PLpro yeast = SARS-CoV PLP inhibition in yeast; S. cerevisiae expressing SARS-CoV PLpro, growth rescue; control for the full effect not named in the record; Potency, µM (top dose mostly 32.9 µM), for inactives: top-dose activity, positive = growth rescue; 330,000 compounds, 0.19% hits; active means well fitted rising curve with a large enough effect; inconclusive means small, poorly fitted or top-dose-only effect; inactive means no such curve, though single readings can be large or run the other way; further: 0% is about no effect; nearly all actives have a fitted effect of over 55% in size; growth read by luminescence after 48 h
StopGo reporter = lowers the luciferase signal of an FMDV 2A StopGo reporter | human cells with a luciferase reporter of 2A StopGo recoding; control for the full effect not named in the record | Potency, µM (titrated, usually from 57.9 µM), for inactives: at the top dose signal change, negative = less light | 410,000 compounds, 1.2% hits | AID 1159524; active = well fitted falling curve with a large enough effect; inconclusive = small, poorly fitted or top-dose-only effect; inactive = no such curve, though single readings can be large or run the other way; tested in HEK293T cells; further: on the % scale 0 is the no-effect control and ±100 the full control effect; nearly all actives have a fitted effect of over 45% in size; luciferase light after 4 h
Active calls of the source: *; u = inconclusive; x = not tested or not shown; & = joins results of further samples; [ ] = another dose, or the depositor's remark. Unless noted, the call rests on the fitted dose curve; in most records, active means well fitted curve in the direction sought with a large enough effect; inconclusive means small, poorly fitted or top-dose-only effect, or another doubt; inactive means no such curve, though single readings can be large; an effect the other way counts as inactive or inconclusive. Potency means the concentration at half of the fitted maximal effect.

Each structure is followed by: MARV entry inh, RE007 growth inh, NS1 inh, LASV entry inh, Cruzain noTriton, Cruzain Triton, SARS PLpro yeast, StopGo reporter
CCc1ccc(-c2nc3c(c(SCc4ccccc4F)n2)Cc2c(CO)cnc(C)c2O3)cc1
  x, x, x, 7%[46.1 µM], 9%, -1.5%, x, -3%
COc1ccc(CC(=O)N/N=C(\C)c2cccnc2)cc1OC
  x, 0%, 8%, x, x, x, 0%, -4%
COP1(=O)C[C@@H](O)[C@@H](O)[C@@H](COCc2ccccc2)O1 (stereo not given in full)
  x, 0%, 3%, x, x, x, 0%, -10%
O=C(N[C@@H](c1ccccc1)[C@@H]1C[C@H]1C(=O)O)OCc1ccccc1
  3%, -1%, -4%, -11%, 3%&-3%, -0.9%&-3.3%, 22%, -15%
Cc1ccc(Cl)cc1N1CCN(C(=O)c2ccc(CS(=O)(=O)c3ccc(Br)cc3)o2)CC1
  u, x, x, -1%[46.1 µM], -1%, 0.4%, x, u
Cc1cc(C)c(C)c(S(=O)(=O)N2CCN(C(=O)c3cc(=O)[nH]c4ccccc34)CC2)c1C
  u, 0%, 14%, u, 13%, -10%, -7%, u
COc1ccc(OCCc2nnc(N)s2)cc1
  1%, -6%, 3%, 25%, -23%, 1.9%, -1%, 32%[activator]
COc1ccc(OCCN(C)Cc2c(O)ccc3ccccc23)cc1
  -6%[46.1 µM], -12%, 10%, 16%[46.1 µM], x, x, 0%, -12%
O=C(O)c1ccccc1SCc1ccc2c(c1)OCO2
  u, -13%, -111%, u, -2%, 2.8%, x, 18%
CC(=O)N1C(=O)NC(c2ccccc2)=C([N+](=O)[O-])C1c1ccccc1 (stereo not given)
  u, -26%, 29%, -16%, x, x, -3%, -17%

More compounds follow:
Each structure is followed by: MARV entry inh, RE007 growth inh, NS1 inh, LASV entry inh, Cruzain noTriton, Cruzain Triton, SARS PLpro yeast, StopGo reporter
O=c1[nH]n(-c2ccccc2)c(=O)cc1Cl
  u, 4%, x, 12%[46.1 µM], x, x, x, -1%
O=C(NCc1ccccc1)c1cnc(-c2ccccn2)nc1C(F)(F)F
  u, 23%, 1%, 15%, 2%, 1.7%, -3%, 12%
COc1ccc(OC)c(CCNC(=O)CCn2nc(C)c3c(C)n(-c4ccccc4)nc3c2=O)c1
  x, -7%, 6%, x, x, x, 6%, -19%
O=C(Nc1ccc(Br)cc1)c1ccc(Br)c(S(=O)(=O)N2CCCCC2)c1
  x, x, x, u, -13%, 3.1%, x, u
CCOc1ccccc1CNC(=O)Nc1cn(CC(C)C)c(=O)c2ccccc12
  x, x, x, u, u, -25%, x, 0%
CN1/C(=C\P(=O)(N(C)C)N(C)C)C(C)(C)c2ccccc21
  u, -8%, -11%, u, -1%, 2.3%, 3%, u
O=C(N/C(=C/c1ccc(F)cc1)C(=O)N1CCOCC1)c1ccccc1
  13%, -2%, 8%, 9%, x, x, 4%, -17%
CCC(=O)Nc1nc2c(s1)COc1ccccc1-2
  x, 16%, -28%, x, 9%, -6.0%, -11%, 16%
COc1ccc(NC(=O)CN(C)S(=O)(=O)c2ccc3c(c2)CCCN3C(C)=O)cc1
  x, -3%, -2%, u, -6%, -1.0%, 16%, -14%&-20%
NC(=O)C1(Nc2ccc(-c3ccccc3)cc2)CCCC1
  u, 10%, x, 13%, x, x, x, 9%

Following part.
Each structure is followed by: MARV entry inh, RE007 growth inh, NS1 inh, LASV entry inh, Cruzain noTriton, Cruzain Triton, SARS PLpro yeast, StopGo reporter
O=S(=O)(c1ccccc1)N1CCC(=NO)CC1
  u, 26%, x, 9%, x, x, 1%, -11%
Cc1cc(C)n(CC(O)Cn2c3ccc(Cl)cc3c3cc(Cl)ccc32)c(=O)n1 (stereo not given)
  -28%, 2%, 25%, -15%, u, -1.2%, -2%, x
CCn1ncc(Cl)c1C(=O)Nc1cc([N+](=O)[O-])ccc1OC
  12%, -14%, -7%, -2%, -21%, 0.1%, 8%, -11%
CC(C)C(=O)O/N=C(\N)c1ccccn1
  u, 11%, 28%, 9%, 4%, -2.0%, -5%, 30%
CCc1ccccc1NC(=O)C1CCCN(c2nccc(C)n2)C1 (stereo not given)
  8%[46.1 µM], 7%, 7%, 2%, x, x, 1%, 3%
CCOc1ccc(C(=O)c2oc3ccccc3c2NC(=O)c2cc(-c3ccccc3)on2)cc1
  -2%[46.1 µM], x, x, -14%[46.1 µM], -3%, -1.6%, x, -6%
CN(C)Cc1c(O)ccc2occ(C(O)c3ccccc3)c12 (stereo not given)
  u, -10%, -24%, 1%, 4%, -0.8%, -1%, -9%
O=C(NCCN1CCCCC1)c1ccc(Oc2cc(Cl)cc(Cl)c2)o1
  u, 2%, 7%, u, x, x, 0%, -16%
O=c1c(-c2ccccc2)c(O)c2cccc3c2n1CCC3
  u, -23%, -33%, 15%, -3%, 1.1%, -4%, -11%
CC1(C)CC(=O)C2=C(C1)NC1=C(C(=O)c3ccccc31)C2c1ccccc1 (stereo not given)
  u, -2%, 26%, u, 8%, -9.6%, u, u

The listing continues.
Each structure is followed by: MARV entry inh, RE007 growth inh, NS1 inh, LASV entry inh, Cruzain noTriton, Cruzain Triton, SARS PLpro yeast, StopGo reporter
CCOc1ccc(OCc2cccc(C(=O)O)c2)cc1
  u, u, -140%, u, -6%, 2.5%, 1%, 0.89µM*
O/N=C1\CCCC\C1=C/c1ccccc1
  17%, -14%, 16%, -1%, -10%, 2.3%, 13%, -20%
Cc1cc(C(=O)NC2CCCN(Cc3ccccc3F)C2)no1 (stereo not given)
  x, -2%, 3%, x, x, x, -4%, 0%
O=C(C1CCCO1)N1CCN(C(=S)Nc2ccccc2Cl)CC1 (stereo not given)
  -12%, 8%, -12%, 13%, -8%, -2.6%, 6%, -25%
C/C(CC(=O)Nc1ccc2c(c1)OCCO2)=N\NC(=O)COc1ccc(Cl)c(C)c1
  2%[46.1 µM], 9%, -1%, 0%[46.1 µM], x, x, -4%, 6%
Nc1nc2cc(S(=O)(=O)N3CCOCC3)ccc2o1
  -3%[46.1 µM], -15%, x, 6%[46.1 µM], x, x, 4%, 3%
COC(=O)C1=C(C)Nc2ncnn2C1c1ccc(OC(=O)c2ccccc2)cc1 (stereo not given)
  -11%, -5%, -20%, -29%, u, 4.5%, 8%, x
C=CCc1ccccc1OCC(=O)N/N=C/c1ccc(OC(C)=O)cc1OC(C)=O
  u, -29%, -73%, u, u, -12%, -71%, 0%
O=C(C1CCN(S(=O)(=O)c2cccc3nonc23)CC1)N1CCN(c2cccc(Cl)c2)CC1
  x, x, x, u, 6%, -3.9%, x, -13%
N#CCC(=O)Nc1ccc(C(=O)OCC(=O)Nc2ccc3ccccc3c2)cc1
  u, -3%, x, -8%, x, x, -3%, 37%[activator]

Next entries:
Each structure is followed by: MARV entry inh, RE007 growth inh, NS1 inh, LASV entry inh, Cruzain noTriton, Cruzain Triton, SARS PLpro yeast, StopGo reporter
NC(=S)N/N=C1/CCSc2ccc3ccccc3c21
  u, 12%, 3%, -12%, x, x, 5%, u
O=C(Nc1ccc2nn(-c3ccccc3)nc2c1)c1ccco1
  u, -14%, -4%, 21%, -7%, -12%, -36%, 30%
C/C(Cl)=C/Cc1c(C)[nH]c2c(ccc3ccccc32)c1=O
  x, -9%, 12%, x, x, x, -1%, 12%
C=CCC(NCCCO)c1cccc(OC)c1OC (stereo not given)
  u, 0%, -3%, 8%, 3%, 2.4%, -8%, -6%
Cc1nc2ncnn2c(C)c1CCC(=O)N1CCOCC1
  u, -2%, -1%, 27%, 10%, 1.8%, 5%, -6%
O=C(O)CCC(=O)c1ccc2c(c1)CCCC2
  0%, -10%, x, u, x, x, -2%, 44%[activator]
Cc1ccc(C)c(CN2C(=O)N(c3cc(Cl)ccc3C)S(=O)(=O)c3ccccc32)c1
  x, x, x, -2%[46.1 µM], 21%, 2.5%, x, 0%
CC1(C)Oc2cc(N)c([N+](=O)[O-])cc2O1
  11%, -2%, 0%, 2%, -10%, -1.7%, -5%, -12%
O=C(NCc1ccccc1)C(=O)NCC(c1ccco1)S(=O)(=O)c1ccc(Cl)cc1 (stereo not given)
  x, x, x, u, -13%, -1.1%, x, 32µM*
CC(C)S(=O)(=O)c1ccc(C(=O)Nc2ccc(F)cc2F)cn1
  u, 5%, -1%, -14%, x, x, -1%, 0%
Cc1cc(C)c2nc(-c3ccccn3)cc(C(=O)n3cccn3)c2c1
  u, -15%, 2%, -14%, x, x, 0%, -12%
O=C(NCc1ccc(Cl)cc1)C1(c2cccs2)CCOCC1
  x, x, x, -3%[46.1 µM], 8%, -1.1%, x, -20%

Hits appear at their usual frequency; overall some 4.8% were active at least once.
